Source: PubChem
AF4-AF9 inh: inhibitors of AF4 peptide binding to AF9, primary screen, biochemical, AlphaScreen, biotin-AF4 peptide, FLAG-AF9, single point; hit rate 0.47% among 350,000; Protein AF-9 (Homo sapiens), P42568; inhibition, % at 10 µM;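 active = every replicate reaching a set inhibition limit, whatever the replicate mean, cut at about 25% in these data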;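 note: 0% = plate neutral control median and 100% = total signal loss; the record names both 10 and 1 µM as test concentration; the first replicate is given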
Target sequence (P42568 whole entry, looked up): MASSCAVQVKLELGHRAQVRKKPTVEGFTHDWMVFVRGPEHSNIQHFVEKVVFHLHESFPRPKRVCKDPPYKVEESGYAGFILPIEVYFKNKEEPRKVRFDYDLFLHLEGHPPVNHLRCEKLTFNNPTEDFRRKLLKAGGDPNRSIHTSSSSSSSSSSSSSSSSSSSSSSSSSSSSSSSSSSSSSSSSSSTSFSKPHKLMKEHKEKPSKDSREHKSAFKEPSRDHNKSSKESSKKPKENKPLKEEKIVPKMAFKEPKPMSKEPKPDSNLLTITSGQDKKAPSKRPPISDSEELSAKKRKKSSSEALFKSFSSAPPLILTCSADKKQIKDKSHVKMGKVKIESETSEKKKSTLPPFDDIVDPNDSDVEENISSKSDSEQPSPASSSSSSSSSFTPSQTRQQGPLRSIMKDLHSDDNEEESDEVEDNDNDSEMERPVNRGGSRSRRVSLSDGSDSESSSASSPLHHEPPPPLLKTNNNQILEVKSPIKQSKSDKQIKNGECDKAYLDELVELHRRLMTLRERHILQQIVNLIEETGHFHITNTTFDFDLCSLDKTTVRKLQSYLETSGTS
Starred values were filed as active, the others as inactive; & = joins results of further samples.

SMILES	AF4-AF9 inh
Cc1ccc(S(=O)(=O)NCC[C@H]2CC[C@H](NC(=O)Nc3ccccc3F)[C@H](CO)O2)cc1	0.3
COc1cc(NC(=O)c2ccc(-c3ccc(F)c(F)c3)c3ccoc23)cc(OC)c1OC	-6.0
CC(C)C#Cc1cnc2c(c1)C(=O)N([C@H](C)CO)C[C@H](C)[C@H](CN(C)Cc1cncnc1)O2	-5.4
CC1(C(=O)NC2CCCCC2)CCC(=O)N1CCOc1ccccc1 (stereo not given)	-4.2
CO[C@@H]1CN(C)C(=O)c2ccc(NC(=O)c3ccc(-c4ccccc4)cc3)cc2OC[C@H](C)NC[C@H]1C	2.8
COc1cccc(CNc2nc3cc(-c4cscc4C)sc3c(=O)n2C)c1	1.2
COc1ccc(CN(C)C[C@@H]2Oc3ccc(NC(=O)c4ccncc4)cc3C(=O)N([C@H](C)CO)C[C@H]2C)cc1	-1.9
Cc1noc(C)c1S(=O)(=O)Nc1ccc2c(c1)C(=O)N([C@@H](C)CO)C[C@@H](C)[C@@H](CN(C)C(=O)CCC(F)(F)F)OCCCC[C@@H](C)O2	0.6
Cc1noc(C)c1S(=O)(=O)N(C)C[C@@H]1OCCCC[C@H](C)Oc2ccc(NC(=O)Cc3ccccc3)cc2C(=O)N([C@@H](C)CO)C[C@H]1C	-1.8
Cc1noc(C)c1S(=O)(=O)N(C)C[C@H]1Oc2ccc(NC(=O)CCCCCC(=O)Nc3ccccc3N)cc2CC(=O)N([C@H](C)CO)C[C@H]1C	-1.4
C[C@@H]1CN([C@@H](C)CO)C(=O)c2c(c3ccccc3n2C)-c2ccccc2CO[C@@H]1CN(C)Cc1ccncc1	2.8
C[C@@H]1CN([C@@H](C)CO)C(=O)c2cc(C3=CCCC3)cnc2O[C@H]1CN(C)Cc1ccccc1F	-1.3
COc1cccc(-c2cn(CC[C@H]3CC[C@@H](NC(=O)CN(C)C)[C@@H](CO)O3)nn2)c1	-2.3
O=C(c1cccs1)N1CCN(Cc2nc(-c3ccccc3)no2)CC1	-3.7
Cc1ccc(-c2cnc3c(c2)C(=O)N([C@@H](C)CO)C[C@@H](C)[C@H](CN(C)CC2CCCCC2)O3)cc1	2.9
C[C@H](NC(=O)/C=C/[C@H]1O[C@@H](n2ccc(=O)[nH]c2=O)[C@H](O)[C@@H]1O)C(=O)O	2.2
CC(=O)N(C)C[C@@H]1[C@@H](c2ccc(C#Cc3ccccn3)cc2)[C@@H](CO)N1C(C)=O	-1.5
CN(Cc1ccccc1)C(=O)C1(C)CCN1C(=O)Cc1ccc(Cl)cc1Cl (stereo not given)	0.8
C[C@H]1CN([C@@H](C)CO)C(=O)Cc2cc(NC(=O)CCN3CCOCC3)ccc2O[C@@H]1CN(C)Cc1ccncc1	1.9
CN1C(=O)c2cc(NC(=O)NCc3ccccc3)ccc2OC[C@H]2O[C@@H](CC(=O)NCC3CCCCC3)CC[C@H]21	-16
COc1ccccc1CNc1nc(Nc2ccc(C)cc2C)c2sccc2n1	1.3
C[C@@H]1CN([C@H](C)CO)S(=O)(=O)c2ccc(C#Cc3ccc(F)cc3)cc2O[C@@H]1CN(C)CC1CC1	6.0
CC1CC(NC(=O)c2c(O)nc3ccccn3c2=O)CC(C)(C)C1 (stereo not given)	-9.3
CCCN(C)C[C@@H]1OCc2cnnn2CCCC(=O)N([C@@H](C)CO)C[C@@H]1C	-0.1
CCCNC(=O)C[C@H]1CC[C@@H]2[C@H](COc3ccc(NC(=O)NC(C)C)cc3C(=O)N2C)O1	-0.7
CCOC(=O)C1=C(C)N=c2sc(=Cc3ccc(OCC(=O)O)cc3)c(=O)n2C1c1ccc(SC)cc1 (stereo not given)	16
CO[C@@H](CN(C)C(=O)c1ccc2c(c1)OCO2)[C@@H](C)CN([C@@H](C)CO)S(=O)(=O)c1ccc(F)cc1	1.0
Cc1ccc(C)c(C(O)c2ncc(-c3ccccc3)[nH]2)c1 (stereo not given)	-4.9
Cc1cc(NC(=O)C2(C)CCN2C(C)C)c2ccccc2n1 (stereo not given)	0.1
C[C@H](CO)N1C[C@H](C)[C@H](CN(C)C(=O)Nc2ccccc2)Oc2ccc(NS(=O)(=O)c3ccccc3)cc2CC1=O	-2.8
C[C@H]1CN([C@@H](C)CO)S(=O)(=O)c2ccc(C#CC(C)(C)O)cc2O[C@@H]1CN(C)Cc1ccccc1	9.0
COc1ccccc1NC(=O)N[C@H]1C=C[C@H](CC(=O)NCc2ccc(Cl)c(Cl)c2)O[C@@H]1CO	-0.3
CC(=O)Nc1cccc(-c2ccnc3c2CC(C(=O)Nc2ccc(C(C)C)cc2)O3)c1 (stereo not given)	1.4
CO[C@@H]1CN(C)C(=O)c2cc(NC(=O)NC(C)C)ccc2OC[C@H](C)N(C(=O)CN(C)C)C[C@@H]1C	0.4
COc1ccc(S(=O)(=O)N(C)C[C@@H]2Oc3c(NS(=O)(=O)c4ccccc4)cccc3C(=O)N([C@H](C)CO)C[C@@H]2C)cc1	0.2
CCCNC(=O)N(C)C[C@@H]1Oc2ncc(C#CCC3CCCC3)cc2C(=O)N([C@H](C)CO)C[C@H]1C	1.2
O=C(C[C@@H]1CC[C@H]2NC[C@H](O)COC[C@@H]2O1)NCCN1CCCC1	2.9
COc1ccc(S(=O)(=O)N2CC3(CN(Cc4ccccc4OC)[C@@H](CO)c4[nH]c5cc(OC)ccc5c43)C2)cc1	-0.9
O=C(Nc1cccc(F)c1)N1CC(=O)N2[C@H](C1)[C@H](c1ccc(Br)cc1)[C@@H]2CO	-2.5
O=C(C[C@H]1C[C@H]2c3cc(NC(=O)c4ccc5c(c4)OCO5)ccc3O[C@H]2[C@@H](CO)O1)NCc1ccc(Oc2ccccc2)cc1	1.4
O=C1NC[C@H](CCCCN2C[C@H](Cc3ccc(O)cc3)N(Cc3ccccc3)C(=O)C2=O)N(CC2CCCCC2)C1=O	4.6
COc1ccccc1-c1cn(CC[C@@H]2CC[C@@H](NC(=O)CCN3CCCCC3)[C@H](CO)O2)nn1	0.5
COc1ccc2c3c(n(C)c2c1)[C@@H](CO)N(C(=O)C1CCC1)CC31CCN(C(=O)CN(C)C)CC1	1.3
CCCC(=O)Nc1ccc2c(c1)C(=O)N(C)C[C@@H](OC)[C@@H](C)CN(Cc1cccc(F)c1)[C@H](C)CO2	1.3
Cc1noc(C)c1NC(=O)Nc1ccc2c(c1)C(=O)N([C@H](C)CO)C[C@H](C)[C@H](CN(C)Cc1ccc(Cl)c(Cl)c1)OCCCC[C@H](C)O2	4.0
CCCNC(=O)Nc1ccc2c(c1)C(=O)N(C)C[C@@H](OC)[C@@H](C)CN[C@@H](C)CO2	-2.6
COc1ccc(CN(C)C[C@H]2OCCCC[C@H](C)Oc3ccc(N(C)C)cc3C(=O)N([C@H](C)CO)C[C@H]2C)cc1	4.4
O=C(C[C@H]1C=C[C@H](NC(=O)C2CCC2)[C@H](CO)O1)Nc1nccs1	-3.2
O=C(NCc1cc(Cl)cc(Cl)c1)c1ccc2nc(COCCO)[nH]c2c1	-1.5
CCCCCCCCN1C(=O)[C@H](CC(=O)NCCCOCCCC)C[C@@]2(C(=O)OCC)CCCC=C12	-2.1
Cc1noc(C)c1S(=O)(=O)N(C)C[C@@H]1Oc2ccc(NC(=O)CCCCCC(=O)Nc3ccccc3N)cc2CC(=O)N([C@H](C)CO)C[C@H]1C	0.1
CC=Cc1ccc2n(c1=O)C[C@@H]1[C@@H](CO)[C@H](C(=O)N3CCCCC3)N(Cc3ccccc3OC)[C@H]21 (mixture of isomers)	-13
CC(C)CC#Cc1ccc2c(c1)O[C@@H](CN(C)Cc1ccccc1F)[C@@H](C)CN([C@H](C)CO)S2(=O)=O	-1.9
C[C@H](CO)N1C[C@H](C)[C@H](CN(C)Cc2ccc(C(=O)O)cc2)Oc2ccc(NC(=O)Nc3ccc4c(c3)OCO4)cc2C1=O	0.2
C[C@@H]1CN([C@@H](C)CO)C(=O)c2cc(NC(=O)NC3CCCCC3)ccc2O[C@@H]1CN(C)C(=O)Nc1ccc(C(F)(F)F)cc1	0.6
C[C@H](CO)N1C[C@H](C)[C@@H](CN(C)S(=O)(=O)c2ccc(F)cc2)Oc2ccc(NS(=O)(=O)c3cccs3)cc2CC1=O	2.0
CC(C)NC(=O)N(C)C[C@@H]1Oc2c(NC(=O)c3cnccn3)cccc2C(=O)N([C@@H](C)CO)C[C@@H]1C	-2.4
CO[C@H]1CN(C)C(=O)c2ccc(NC(=O)c3ccccc3F)cc2OC[C@H](C)N(CC2CCOCC2)C[C@@H]1C	0.1
CC(=O)N1CCN(Cc2cc(=O)oc3ccc4ccccc4c23)CC1	-1.2
CCCC#Cc1cnc2c(c1)C(=O)N([C@@H](C)CO)C[C@@H](C)[C@H](CN(C)S(=O)(=O)c1cccc(OC)c1)O2	0.8

Reformatted with the structure last: entries from further up.
AF4-AF9 inh	compound
0.1	Cc1noc(C)c1S(=O)(=O)N(C)C[C@@H]1Oc2ccc(NC(=O)CCCCCC(=O)Nc3ccccc3N)cc2CC(=O)N([C@H](C)CO)C[C@H]1C
-13	CC=Cc1ccc2n(c1=O)C[C@@H]1[C@@H](CO)[C@H](C(=O)N3CCCCC3)N(Cc3ccccc3OC)[C@H]21 (mixture of isomers)
-1.9	CC(C)CC#Cc1ccc2c(c1)O[C@@H](CN(C)Cc1ccccc1F)[C@@H](C)CN([C@H](C)CO)S2(=O)=O
0.2	C[C@H](CO)N1C[C@H](C)[C@H](CN(C)Cc2ccc(C(=O)O)cc2)Oc2ccc(NC(=O)Nc3ccc4c(c3)OCO4)cc2C1=O

Continuation.
SMILES	AF4-AF9 inh
C[C@H](CO)N1C[C@H](C)[C@H](CN(C)CC2CCOCC2)Oc2cc(C3=CCCC3)ccc2S1(=O)=O	4.7
COCC#Cc1ccc([C@@H]2[C@@H](CO)N3CCCCN(C(=O)Nc4cc(F)ccc4F)C[C@H]23)cc1	3.2
Cc1ccccc1S(=O)(=O)NC(=O)C1(C)CCN1C(=O)C/C=C/c1ccccc1 (stereo not given)	-2.0
CC(C)CC#Cc1cnc2c(c1)C(=O)N([C@@H](C)CO)C[C@H](C)[C@@H](CN(C)Cc1cccc(F)c1)O2	10
COc1cccc(-c2cnc3c(NC=O)cc(-c4ccc(N(C)C)cc4)cn23)c1	11
COc1cccc(-c2ccc3c(c2)[C@@H]2[C@@H](CCN2S(=O)(=O)c2ccccc2C)[C@H](CO)N3C)c1	-2.3
Nc1[nH]c(C(=O)c2ccccc2)c(-c2c(F)cccc2F)c1C(=O)c1ccc(Cl)c(Cl)c1	-0.8
C[C@@H]1CN([C@@H](C)CO)C(=O)c2cc(-c3cccc(C#N)c3)cnc2O[C@@H]1CN(C)Cc1cccnc1	-2.1
COc1ccc(C#Cc2ccc3c(c2)[C@]2(C(=O)N3)[C@H](C(N)=O)[C@H]3C(=O)O[C@H](c4ccccc4)[C@H](c4ccccc4)N3[C@@H]2c2ccc(O)cc2)cc1	-0.9
C[C@@H]1CN([C@H](C)CO)C(=O)c2cc(C#Cc3ccccn3)cnc2O[C@@H]1CN(C)C(=O)c1ccccn1	-5.5
N#Cc1ccc(-c2ccc(C3[C@@H]4CN(C(=O)C5CCC5)C[C@H]3N4)cc2)cc1 (stereo not given in full)	1.3&0.7
Cc1cccc(S(=O)(=O)NC(=O)C2(C)CCN2C(=O)Cc2ccc(Cl)cc2Cl)c1 (stereo not given)	-3.4
COc1ccc(NC(=O)N(C)C[C@H]2Oc3ncc(C4=CCCC4)cc3C(=O)N([C@H](C)CO)C[C@H]2C)cc1	-5.7
C[C@H]1CCCCO[C@H](CN(C)C(=O)CCCN(C)C)[C@@H](C)CN([C@@H](C)CO)C(=O)c2cc(NS(=O)(=O)c3ccc(Cl)cc3)ccc2O1	0.1
CN(C)C(=O)C[C@@H]1C[C@H]2c3cc(NC(=O)C4CCC4)ccc3O[C@H]2[C@@H](CO)O1	-1.8
CC(C)NC(=O)N1[C@H](C#N)[C@@H](c2ccc(C#CC3CC3)cc2)[C@@H]1CO	1.5
CC(C)(C)[S@](=O)N1Cc2cc(C(=O)N3CCOCC3)nc(-c3cccc(-c4ccc(C#N)cc4)c3)c2[C@@H]1CCO	-5.0
CCC(=O)N1C[C@H](C)[C@@H](OC)CN(C)C(=O)c2ccc(NC(=O)c3cnccn3)cc2OC[C@@H]1C	-2.2
C[C@H]1CCCCO[C@H](CN(C)Cc2ccc(Cl)c(Cl)c2)[C@@H](C)CN([C@@H](C)CO)C(=O)c2cc(NC(=O)Nc3ccc4c(c3)OCO4)ccc2O1	2.3
Cc1ccc(S(=O)(=O)N(C)c2ccc(OCC(=O)Nc3ccc(S(C)(=O)=O)cc3)cc2)cc1	-5.3
O=C(NCc1ccccc1)c1cc(C2COCCN2C(=O)C/C=C/c2ccccc2)on1 (stereo not given)	-0.7
O=C(Nc1cc(F)ccc1F)N[C@H]1CC[C@H](CCn2cc(C3CCCC3)nn2)O[C@@H]1CO	-0.4
O=C(NCC(F)(F)F)[C@@H]1[C@@H](CO)[C@@H]2Cn3c(cccc3=O)[C@H]1N2C(=O)C1CC1	1.3
CN(C)C(=O)c1cccc(-c2ccc([C@@H]3[C@@H](C#N)N(C(=O)C4CC4)[C@@H]3CO)cc2)c1	-1.6
C[C@@H]1CCCCO[C@H](CN(C)C(=O)Nc2cccc3ccccc23)[C@@H](C)CN([C@H](C)CO)C(=O)c2cc(NC(=O)C3CCCCC3)ccc2O1	-0.7

Fetched one by one from the list above:
SMILES	AF4-AF9 inh
O=C(NCC(F)(F)F)[C@@H]1[C@@H](CO)[C@@H]2Cn3c(cccc3=O)[C@H]1N2C(=O)C1CC1	1.3
CN(C)C(=O)C[C@@H]1C[C@H]2c3cc(NC(=O)C4CCC4)ccc3O[C@H]2[C@@H](CO)O1	-1.8
CC(C)NC(=O)N1[C@H](C#N)[C@@H](c2ccc(C#CC3CC3)cc2)[C@@H]1CO	1.5

Not all compounds are listed (hit frequency here may not be typical).
